High-throughput results from PubChem.
Yeast UUG start: yeast start codon fidelity modulation | S. cerevisiae UUG-firefly luciferase reporter, luminescence/redox ratio | activity score, % at 18.7 µM | 350,000 compounds, 0.13% hits | AID 602363;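 active = replicate mean at a twofold rise or more, about +100% in these data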;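 note: firefly luciferase made from a UUG start codon reports start codon fidelity; reporter light over untreated wells divided by growth signal over untreated wells; some hits fall short of that in this replicate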
* hit, by the source's call. Not all compounds are listed; count on the stated rates, not on these rows.

Sample of the layout, five compounds:
SMILES | Yeast UUG start
C[C@H]1CN([C@@H](C)CO)C(=O)c2cccc(NC(=O)Nc3ccccc3)c2O[C@H]1CN(C)Cc1ccc(C(=O)O)cc1 | 3
CCCC(=O)Nc1ccc2c(c1)C(=O)N(C)C[C@@H](OC)[C@H](C)CN(Cc1ccccc1F)[C@@H](C)CO2 | 3
O=C(Nc1ccccc1)N1C[C@H]2[C@@H](c3ccccc31)[C@@H](CO)N2C(=O)c1ccncc1 | -10
Cc1noc(C)c1NC(=O)N(C)C[C@H]1Oc2ccc(NS(=O)(=O)c3cccs3)cc2C(=O)N([C@H](C)CO)C[C@H]1C | -10
COc1ccc(S(=O)(=O)N(C)C[C@@H]2Oc3ccc(NC(=O)Nc4c(C)noc4C)cc3C(=O)N([C@@H](C)CO)C[C@H]2C)cc1 | -15

This part in full, repeating the preview:
SMILES | Yeast UUG start
C[C@H]1CN([C@@H](C)CO)C(=O)c2cccc(NC(=O)Nc3ccccc3)c2O[C@H]1CN(C)Cc1ccc(C(=O)O)cc1 | 3
CCCC(=O)Nc1ccc2c(c1)C(=O)N(C)C[C@@H](OC)[C@H](C)CN(Cc1ccccc1F)[C@@H](C)CO2 | 3
O=C(Nc1ccccc1)N1C[C@H]2[C@@H](c3ccccc31)[C@@H](CO)N2C(=O)c1ccncc1 | -10
Cc1noc(C)c1NC(=O)N(C)C[C@H]1Oc2ccc(NS(=O)(=O)c3cccs3)cc2C(=O)N([C@H](C)CO)C[C@H]1C | -10
COc1ccc(S(=O)(=O)N(C)C[C@@H]2Oc3ccc(NC(=O)Nc4c(C)noc4C)cc3C(=O)N([C@@H](C)CO)C[C@H]2C)cc1 | -15
CN1C(=O)c2cc(NC(=O)c3cccc(F)c3)ccc2OC[C@@H]2O[C@@H](CC(=O)N3CCc4ccccc4C3)CC[C@H]21 | -10
C[C@H](CO)N1C[C@H](C)[C@H](CN(C)Cc2ccc(Oc3ccccc3)cc2)Oc2ccc(NS(=O)(=O)c3ccc(Cl)cc3)cc2C1=O | 2
O=C(Nc1ccc(F)cc1)N1CCCCN2[C@@H](CO)[C@H](c3ccc(C#Cc4ccccc4)cc3)[C@@H]2C1 | -11
C[C@@H]1CN([C@H](C)CO)C(=O)c2cc(NC(=O)Cc3cn(C)c4ccccc34)ccc2O[C@H]1CN(C)Cc1ccc(C(=O)O)cc1 | -1
C[C@@H]1CN([C@H](C)CO)C(=O)c2cccc(NC(=O)Nc3cccc4ccccc34)c2O[C@@H]1CN(C)S(=O)(=O)c1cn(C)cn1 | 4
COc1ccc(C#Cc2ccc3c(c2)[C@H]2[C@H](CCN2C(=O)Nc2ccc(C(F)(F)F)cc2)[C@@H](CO)N3C)cc1 | -18
CC(C)NC(=O)N(C)C[C@H]1Oc2ccc(NC(=O)Cc3ccccc3)cc2C(=O)N([C@H](C)CO)C[C@H]1C | 1

Next part, overlapping the part above by 3 compounds.
SMILES | Yeast UUG start
C[C@@H]1CN([C@H](C)CO)C(=O)c2cccc(NC(=O)Nc3cccc4ccccc34)c2O[C@@H]1CN(C)S(=O)(=O)c1cn(C)cn1 | 4
COc1ccc(C#Cc2ccc3c(c2)[C@H]2[C@H](CCN2C(=O)Nc2ccc(C(F)(F)F)cc2)[C@@H](CO)N3C)cc1 | -18
CC(C)NC(=O)N(C)C[C@H]1Oc2ccc(NC(=O)Cc3ccccc3)cc2C(=O)N([C@H](C)CO)C[C@H]1C | 1
CCS(=O)(=O)N1CCCCN2[C@H](CO)[C@@H](c3ccc(-c4cccc(C#N)c4)cc3)[C@@H]2C1 | 5
O=C(c1cccc(F)c1)N1CCCCN2[C@H](CO)[C@H](c3ccc(/C=C/c4ccccc4)cc3)[C@H]2C1 | -8
O=C(C[C@H]1CC[C@@H]2[C@H](COC[C@@H](O)CN2C(=O)Nc2ccc(Cl)c(Cl)c2)O1)NCc1ccccc1 | 7
N#Cc1cccc(-c2ccc([C@H]3[C@H](CO)N4CCCCN(C(=O)Nc5ccc(F)cc5)C[C@@H]34)cc2)c1 | 3
COc1ccc(NC(=O)Nc2ccc3c(c2)C(=O)N([C@H](C)CO)C[C@@H](C)[C@H](CN(C)C)O3)cc1 | 4
Cc1ccc(S(=O)(=O)N2CC[C@@H]3[C@@H](CO)N(C)c4ccc(-c5cccc(C#N)c5)cc4[C@@H]32)cc1 | -11
O=C(Nc1cccc(F)c1)N1CCCCN2[C@H](CO)[C@H](c3ccc(C#Cc4cccnc4)cc3)[C@@H]2C1 | 3
CCN(C[C@H]1[C@H](c2ccccc2)[C@@H](CO)N1S(C)(=O)=O)C(=O)C1CC1 | 14
C[C@H]1CN([C@@H](C)CO)C(=O)c2ccccc2-c2ccccc2CO[C@@H]1CN(C)C(=O)Nc1cccc(F)c1 | 18
CCCNC(=O)Nc1ccc2c(c1)C(=O)N(C)[C@@H]1CC[C@H](CC(=O)NCCCN(C)C)O[C@H]1CO2 | -13
CC(=O)N(C[C@H]1N[C@H](CO)[C@@H]1c1ccc(-c2ccc(F)cc2)cc1)C(C)C | 0
O=C(C[C@H]1C[C@@H]2c3cc(NC(=O)CC4CC4)ccc3O[C@@H]2[C@H](CO)O1)NCc1cccnc1 | -15
Cc1ccc(S(=O)(=O)N(C)C[C@@H]2Oc3ccc(NC(=O)c4ccncc4)cc3CC(=O)N([C@H](C)CO)C[C@H]2C)cc1 | -8
O=C(C[C@H]1CC[C@H]2[C@@H](COC[C@H](O)CN2Cc2ccc(F)cc2)O1)NCCc1ccccc1 | 3
OC[C@@H]1[C@@H](c2ccc(-c3ccccc3)cc2)[C@@H]2CN(Cc3ccccn3)CCCCN12 | -33
CO[C@@H]1CN(C)C(=O)c2cc(NC(=O)NC3CCCCC3)ccc2OC[C@@H](C)N(CC2CC2)C[C@H]1C | -11
COc1cccc(CN2CCCCN3[C@@H](CO)[C@@H](c4ccc(C#Cc5cccnc5)cc4)[C@@H]3C2)c1 | -1
COCC(=O)Nc1ccc2c(c1)OC[C@@H](C)N(C(=O)Cc1cccnc1)C[C@@H](C)[C@H](OC)CN(C)C2=O | 14
C[C@@H]1CN([C@H](C)CO)C(=O)c2cc(NC(=O)CCC(F)(F)F)ccc2O[C@@H]1CN(C)Cc1ccc(C(F)(F)F)cc1 | 0
C[C@@H]1CN([C@H](C)CO)C(=O)c2cc(NS(=O)(=O)c3ccc(F)cc3)ccc2O[C@@H]1CN(C)Cc1ccc(-c2ccccc2)cc1 | 5
CO[C@@H]1CN(C)C(=O)c2ccc(NC(=O)NC3CCCCC3)cc2OC[C@@H](C)N(CCc2ccccc2)C[C@H]1C | 12
COCC(=O)N1C[C@@H]2[C@H](c3ccccc31)[C@H](CO)N2C(=O)C1CCCC1 | -8
CN(C)CC#Cc1ccc([C@@H]2[C@@H](CO)N3CCCCN(S(=O)(=O)c4ccccc4F)C[C@@H]23)cc1 | 28
CO[C@@H]1CN(C)C(=O)c2cc(NC(=O)NC(C)C)ccc2OC[C@H](C)N(C)C[C@H]1C | 7
COc1ccc(CN2[C@H](CO)[C@H]3c4ccccc4N(C(=O)Nc4ccccc4)C[C@H]32)cc1 | 2
COc1ccc(CN2[C@H](CO)[C@@H]3c4ccccc4N(C(=O)C4CC4)C[C@@H]32)cc1 | 7
CC(C)(C)NC(=O)C[C@H]1C[C@H](C(=O)N2CCOCC2)[C@@]2(CCC3CCCC3)c3[nH]c4cc(-c5ccco5)ccc4c3CCN2C1=O | -10
CCC(=O)N1[C@H](CO)[C@H](c2ccccc2)[C@H]1CN(CC)C(=O)c1ccc(F)cc1 | -7
C[C@@H]1CN([C@H](C)CO)C(=O)Cc2cc(NS(=O)(=O)c3ccc(Cl)cc3)ccc2O[C@@H]1CN(C)CC1CC1 | -16
CCNC(=O)[C@H]1[C@H](CO)[C@H]2Cn3c(ccc(-c4ccccc4F)c3=O)[C@@H]1N2CC1CC1 | -4
C[C@@H]1CN([C@H](C)CO)C(=O)c2cc(NS(=O)(=O)c3ccc(Cl)cc3)ccc2O[C@H]1CN(C)C(=O)NC1CCCCC1 | 2
O=C(Nc1ccccc1)N1CCCCN2[C@H](CO)[C@@H](c3ccc(C#Cc4ccccn4)cc3)[C@H]2C1 | 8
CNC(=O)C[C@H]1CC[C@H]2[C@@H](COc3ccc(NC(=O)Nc4cccc(C)c4)cc3C(=O)N2C)O1 | 4
C[C@@H]1CN([C@H](C)CO)C(=O)c2cc(NS(=O)(=O)c3ccc(F)cc3)ccc2O[C@H]1CN(C)Cc1ccc2c(c1)OCO2 | 4
CN(C[C@H]1N[C@@H](CO)[C@H]1c1ccc(-c2ccccc2)cc1)C(=O)C1CCC1 | 0
CCCNC(=O)Nc1ccc2c(c1)C(=O)N(C)C[C@H](OC)[C@H](C)CN(C(=O)C1CCC1)[C@H](C)CO2 | -2
CO[C@@H]1CN(C)C(=O)c2ccc(NS(C)(=O)=O)cc2OC[C@H](C)N(CC2CC2)C[C@@H]1C | -5
C/C=C/c1ccc([C@@H]2[C@@H](CO)N(C(=O)NCCC)[C@@H]2CNC(=O)C2CC2)cc1 | -5
COc1ccc(NC(=O)Nc2ccc3c(c2)C(=O)N([C@@H](C)CO)C[C@H](C)[C@@H](CN(C)C(=O)Nc2ccc(C(F)(F)F)cc2)O3)cc1 | -8
C[C@H](CO)N1C[C@H](C)[C@H](CN(C)C(=O)Nc2ccc(C(F)(F)F)cc2)Oc2c(NS(=O)(=O)c3cn(C)cn3)cccc2C1=O | -9
O=C(c1ccccn1)N1CC[C@@H]2[C@H]1c1cc(-c3ccccc3)ccc1N[C@@H]2CO | -4
C[C@H](CO)N1C[C@H](C)[C@H](CN(C)C(=O)NC2CCCCC2)Oc2c(NS(=O)(=O)c3ccc(Cl)cc3)cccc2C1=O | 10
CCS(=O)(=O)N1CCCCN2[C@@H](CO)[C@@H](c3ccc(-c4ccc(C(=O)N(C)C)cc4)cc3)[C@@H]2C1 | 0
COc1ccc(-c2ccc3c(c2)[C@@H]2[C@@H](CCN2C(=O)c2ccc(F)cc2)[C@@H](CO)N3C)cc1 | -10
Cc1noc(C)c1NC(=O)Nc1cccc2c1O[C@@H](CN(C)C)[C@@H](C)CN([C@@H](C)CO)C2=O | 11
COc1ccccc1-c1ccc2c(c1)[C@H]1[C@H](CCN1S(=O)(=O)c1ccccc1)[C@@H](CO)N2 | -3
CN(C)CC(=O)N1C[C@@H]2[C@H](c3ccccc31)[C@H](CO)N2C(=O)c1ccccn1 | 2
CCCNC(=O)N1C[C@H]2[C@@H](c3ccccc31)[C@H](CO)N2Cc1cccc(OC)c1 | -17
CCCC(=O)Nc1ccc2c(c1)OC[C@@H](C)N(Cc1nccs1)C[C@@H](C)[C@@H](OC)CN(C)C2=O | 0
C[C@@H]1CN([C@@H](C)CO)C(=O)c2cc(NC(=O)Nc3ccc(F)cc3)ccc2O[C@@H]1CN(C)Cc1ccc(C(F)(F)F)cc1 | 3
C[C@H]1CN([C@@H](C)CO)C(=O)c2cc(NC(=O)Cc3cn(C)c4ccccc34)ccc2O[C@H]1CN(C)Cc1ccc(C(=O)O)cc1 | -7
COc1ccc(NC(=O)N2C[C@H]3[C@@H](c4ccccc42)[C@@H](CO)N3Cc2ccccn2)cc1 | -11
CCC(=O)NC[C@H]1[C@H](c2ccc(-c3ccccc3)cc2)[C@@H](CO)N1C(=O)C1CC1 | -4
C[C@@H]1CN([C@H](C)CO)C(=O)c2cccc(NC(=O)C3CCCCC3)c2O[C@@H]1CN(C)S(=O)(=O)c1ccc(F)cc1 | 11
C[C@@H]1CN([C@H](C)CO)C(=O)c2cccc(NC(=O)Nc3ccc(F)cc3)c2O[C@H]1CN(C)C | 19
CCC(=O)Nc1ccc2c(c1)C(=O)N(C)C[C@H](OC)[C@@H](C)CN(CC1CC1)[C@H](C)CO2 | -17
CCCNC(=O)N1[C@@H]2CN(C(=O)C3CCC3)c3ccccc3[C@@H]2[C@@H]1CO | 18
COCC(=O)NC[C@@H]1[C@@H](c2ccc(C3=CCCC3)cc2)[C@H](CO)N1C(=O)C1CC1 | 10
CCCNC(=O)Nc1ccc2c(c1)C(=O)N(C)[C@H]1CC[C@H](CC(=O)NCc3ccccc3)O[C@H]1CO2 | -6
Cc1noc(C)c1NC(=O)Nc1ccc2c(c1)C(=O)N([C@@H](C)CO)C[C@H](C)[C@@H](CN(C)C(=O)NC(C)C)O2 | -9

Next section:
SMILES | Yeast UUG start
Cc1cc(C(=O)Nc2cccc3c2O[C@@H](CN(C)C(=O)Nc2c(C)noc2C)[C@H](C)CN([C@H](C)CO)C3=O)n(C)n1 | -36
Cn1cnc(S(=O)(=O)N2C[C@@H](O)COC[C@@H]3O[C@H](CC(=O)NCc4cc(F)cc(F)c4)CC[C@H]32)c1 | 6
CO[C@H]1CN(C)C(=O)c2ccc(NC(=O)c3ccc(F)cc3)cc2OC[C@@H](C)N(C(C)=O)C[C@H]1C | -1
COc1ccc(S(=O)(=O)N(C)C[C@@H]2Oc3ccc(NC(=O)CCC(F)(F)F)cc3C(=O)N([C@H](C)CO)C[C@H]2C)cc1 | 13
CC(C)NC(=O)N(C)C[C@H]1Oc2ccc(NC(=O)CCN3CCOCC3)cc2CC(=O)N([C@H](C)CO)C[C@@H]1C | 10
COc1ccc(CNC(=O)C[C@@H]2C[C@@H]3c4cc(NS(=O)(=O)c5ccc(F)cc5)ccc4O[C@@H]3[C@H](CO)O2)cc1 | 16
CN1CCN(C(=O)C[C@@H]2CC[C@@H]3[C@H](COC[C@H](O)CN3Cc3ccc4c(c3)OCO4)O2)CC1 | -4
CO[C@@H]1CN(C)C(=O)c2cc(NC(C)=O)ccc2OC[C@H](C)N(Cc2ccncc2)C[C@@H]1C | -5
C[C@@H]1CN([C@H](C)CO)C(=O)Cc2cc(NC(=O)Cc3ccccc3)ccc2O[C@@H]1CN(C)C | -13
